Screens (PubChem BioAssay)
KCNQ2 block: KCNQ2 potassium channel inhibitors, primary screen, cell-based, CHO-K1, FluxOR thallium flux, B-score (AID 2156); O88943; 20 min; stronger effect = lower value; only compounds with negative scores are shown here; some inactives read as strong as hits; B-score at 10 µM; actives 1.1% (n = 310,000);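 active = fluorescence ratio B-score at most minus 3 library SDs, with starting brightness B-score within 2 library SDs, cut at about -5.5 in these data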
Target sequence (O88943 whole entry, looked up): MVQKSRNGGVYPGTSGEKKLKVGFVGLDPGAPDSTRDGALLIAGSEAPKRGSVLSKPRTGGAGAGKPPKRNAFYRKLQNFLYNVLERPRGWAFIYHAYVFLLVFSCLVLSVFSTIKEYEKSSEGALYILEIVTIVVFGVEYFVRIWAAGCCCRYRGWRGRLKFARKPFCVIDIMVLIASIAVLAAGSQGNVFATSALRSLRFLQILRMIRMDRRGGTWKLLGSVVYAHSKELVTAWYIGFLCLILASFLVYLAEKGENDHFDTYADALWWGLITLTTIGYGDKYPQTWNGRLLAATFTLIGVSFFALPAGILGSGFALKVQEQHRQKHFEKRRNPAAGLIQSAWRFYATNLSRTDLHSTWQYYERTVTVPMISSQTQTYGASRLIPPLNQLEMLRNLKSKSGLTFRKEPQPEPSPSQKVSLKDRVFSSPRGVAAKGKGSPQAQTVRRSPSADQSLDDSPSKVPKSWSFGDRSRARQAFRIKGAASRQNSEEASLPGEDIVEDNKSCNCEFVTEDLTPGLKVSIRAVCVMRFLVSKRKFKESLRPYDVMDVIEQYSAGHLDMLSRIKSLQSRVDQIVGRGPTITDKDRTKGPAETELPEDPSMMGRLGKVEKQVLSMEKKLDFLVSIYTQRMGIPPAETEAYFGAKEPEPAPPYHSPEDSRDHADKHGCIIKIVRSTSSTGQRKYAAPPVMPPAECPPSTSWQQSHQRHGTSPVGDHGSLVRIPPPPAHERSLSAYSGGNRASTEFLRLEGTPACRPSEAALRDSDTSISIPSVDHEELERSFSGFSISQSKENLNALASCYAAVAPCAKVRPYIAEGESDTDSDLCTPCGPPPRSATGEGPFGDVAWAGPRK
KCNQ2 block baseline: recorded beside KCNQ2 block, whose call it bears; B-score; measured here: initial fluorescence intensity artifact check;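 brightness before thallium and not channel activity; 0 = typical well and far values either way flag optical interference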
The depositor's hits bear a star; i = inactive. Not all compounds are listed; the hit share may differ from the screen's.

KCNQ2 block | KCNQ2 block baseline | compound
i | -1.3 | O=S(=O)(Nc1ccc(Br)cc1)N1CCOCC1
i | 0.15 | O=C(CN(Cc1ccco1)C(=O)CNS(=O)(=O)c1ccc(F)cc1)NCc1ccccc1
i | -0.92 | O=C(c1cccc(C(F)(F)F)c1)C1CCCN(C(=O)CN2CCOC2=O)C1 (configuration not stated)
i | 0.13 | O=C1CS/C(=N\c2ccccn2)N1C1CCCCC1
i | 1.1 | O=C(c1ccc2c(=O)n(Cc3ccc(Cl)cc3)c(=S)[nH]c2c1)N1CCCC1
i | -0.75 | COc1ccc(CCN2CC(C(=O)NCCc3ccc(C(F)(F)F)cc3)CCC2=O)cc1 (configuration not stated)
i | -0.32 | O=C1COc2ccc(C(=O)COC(=O)c3ccco3)cc2N1
i | 0.16 | Cc1cccc(NC(=O)c2cc3c(=O)n4ccccc4nc3s2)c1
i | -0.32 | O=C(/C=C/c1ccccc1Cl)N(Cc1ccc(Cl)cc1)C1CCS(=O)(=O)C1 (configuration not stated)
i | 1.4 | N#CCCNC(=O)Cn1c(COc2ccc(Cl)cc2)nc2ccccc21
-5.8* | -0.16* | COc1ccc(C(=O)Nc2ccccc2C(=O)N/N=C/c2cccc3ccccc23)cc1
i | 1.3 | COc1ccc(C(=O)Nc2c(-c3cccs3)c(=O)c3ccccc3n2C)cc1
i | 0.04 | Cc1nc(-c2ccc(S(=O)(=O)N3CCN(c4cccc(C)c4C)CC3)cc2)co1
i | 1.4 | CC(=O)Nc1ccc(S(=O)(=O)Nc2cccc(C(=O)Nc3ccccc3C(=O)O)c2)cc1
i | -0.27 | COc1ccc(NC(=O)C2CCCN(S(=O)(=O)c3cccc4nonc34)C2)c(OC)c1 (configuration not stated)
i | -1.6 | Cc1cc(=O)oc2cc(NC(=O)CC3(CC(=O)O)CCCC3)ccc12
i | 0.1 | COc1ccc(OCc2nc(C#N)c(N3CCN(c4ccc(OC)cc4)CC3)o2)cc1
i | 2.8 | O=C(CC(Nc1ccc(Cl)cc1)C(=O)O)c1ccccc1 (configuration not stated)
i | 5.1 | Cc1ccc(/C=N/n2c(COc3ccccc3)n[nH]c2=S)s1
i | -0.27 | Cc1ccc(C2CC(C(F)(F)F)n3nc(C(=O)NCC4CCCO4)cc3N2)cc1 (configuration not stated)

Next part:
KCNQ2 block | KCNQ2 block baseline | compound
i | -0.02 | Cc1ccc(-n2c(=O)c3sccc3n(CC(=O)NCc3ccco3)c2=O)cc1F
i | -0.43 | O=C(Nc1ccc(S(=O)(=O)N2CCOCC2)cc1)c1ccc2c(c1)OCO2
i | 0.29 | Cc1noc(C)c1CSc1nnc2ccc3ccccc3n12
i | -0.62 | CC(C)(C)C(=O)N1c2ccccc2CCc2ccccc21
i | -0.08 | COc1ccc(NC(=O)C2CCN(S(=O)(=O)c3ccc(C)cc3)CC2)cc1OC
i | 1.7 | CC(=O)Nc1ccc(S(=O)(=O)Nc2ccc(F)c([N+](=O)[O-])c2)cc1
i | 0.16 | COc1ccc(CC(=O)NCC2CCCN(Cc3ccc(OC)cc3F)C2)cc1 (configuration not stated)
i | -0.76 | CCn1c(SCC(=O)Nc2ccc(C(C)=O)cc2)nc2nc3c(cc2c1=O)COC(C)(C)C3
i | 0.03 | COc1ccc(-n2c(-c3ccc(C)cc3)n[nH]c2=S)cc1
i | -0.74 | ClC1=C(Cl)C(Cl)=C(Cl)C1=C/C=C/c1ccccc1
i | -2.7 | O=C(c1ccccc1)c1nn(-c2cccc(Cl)c2)ccc1=O
-7.3* | -0.48* | Cc1cccc(Oc2cc(NC(=O)c3ccccc3)cc([N+](=O)[O-])c2)c1
i | 3.2 | O=C1CCN(CCc2ccccc2)CCN1[C@H](CSc1ccc(Br)cc1)c1ccccc1
i | -0.72 | CCSc1nc2c(c(=O)n1Cc1ccccc1)SC(C)C2 (configuration not stated)
i | 0.9 | COC(=O)c1sc(NC(=O)c2cnccn2)c(C(=O)OC)c1C
i | 0.55 | CCN(CC)Cc1c(C(=O)N/N=C/c2cccnc2)nnn1-c1nonc1N
i | 0.08 | O=C(OCc1ccc([N+](=O)[O-])cc1)c1cc(S(=O)(=O)N2CCCCC2)ccc1N1CCOCC1
i | -0.51 | CCCC(=O)N1c2ccccc2NC2=C(C(=O)CCC2)C1c1ccc(F)cc1 (configuration not stated)
i | -0.05 | O=C(O)Cc1c(-c2ccccc2Cl)c2cc(Br)ccc2[nH]c1=O
i | -1.3 | COc1cccc(NC(=O)CN(C)C(=O)c2ccc(NC(=O)CC3SC(N4CCCCC4)=NC3=O)cc2)c1 (configuration not stated)

Full records, looked up by structure. Screens in order: KCNQ2 block	KCNQ2 block baseline
`COc1ccc(-n2c(-c3ccc(C)cc3)n[nH]c2=S)cc1` is entered as i	0.03
`COc1ccc(CC(=O)NCC2CCCN(Cc3ccc(OC)cc3F)C2)cc1` (configuration not stated) is entered as i	0.16
`O=C1CCN(CCc2ccccc2)CCN1[C@H](CSc1ccc(Br)cc1)c1ccccc1` is entered as i	3.2
`COC(=O)c1sc(NC(=O)c2cnccn2)c(C(=O)OC)c1C` is entered as i	0.9
`Cc1ccc(-n2c(=O)c3sccc3n(CC(=O)NCc3ccco3)c2=O)cc1F` is entered as i	-0.02

Further compounds
KCNQ2 block | KCNQ2 block baseline | compound
i | -0.01 | Cn1ncc2c(Nc3ccccc3Cl)nc(Nc3ccccc3Cl)nc21
i | 1.2 | Cc1cccc(CNCc2ccccc2)c1
i | 2.4 | CCOC(=O)c1c(NS(=O)(=O)Cc2ccccc2)sc2c1CCCC2
i | -0.43 | CCCCc1nnc(NC(=O)CN2C(=O)C3CCCCC3C2=O)s1 (configuration not stated)
i | 0.17 | CC(=O)Nc1ccc(Nc2nnc(-c3ccc(C)c(S(=O)(=O)NCC4CCCO4)c3)c3ccccc23)cc1 (configuration not stated)
i | -0.88 | CC(C)(C)c1ccc(OCC(=O)NNC(=O)CCc2ccccc2)cc1
i | -0.89 | O=S(=O)(NCc1ccco1)c1cccc(S(=O)(=O)N2CCCCC2)c1
i | -0.6 | COc1ccccc1NC(=O)CSCC(N)=O
i | 0.51 | COc1ccc(S(=O)(=O)N2CCOC2CNC(=O)C(=O)NCCc2ccccc2)cc1OC (configuration not stated)
i | -0.46 | COc1ccc(OC)c(NC(=O)CC2C(=O)NCCN2C(=O)Nc2cccc(Cl)c2)c1 (configuration not stated)
i | 0.44 | O=C(CCNC(=O)c1ccco1)Nc1ccc(Cl)cc1F
i | -0.03 | O=C(NC(=S)NC1CCSC1=O)c1ccccc1F (configuration not stated)
i | 2.5 | C=CCNC(=O)CN1c2cccc3cccc(c23)S1(=O)=O
i | -0.01 | Cc1ccc(N(Cc2ccccc2)C(=O)c2cccc(S(=O)(=O)N3CCN(C)CC3)c2)cc1
i | 2.3 | Cc1ccc(NC(=O)CN(C)C(=O)COc2c(Cl)cc(Cl)c3ccc(C)nc23)cc1
i | -1.4 | Nc1ncc(Br)cc1S(=O)(=O)NCCC(=O)N1CCN(c2ncccn2)CC1
i | 3.9 | CCN(CC)c1ccc(/C=N/NC(=O)c2cccc(S(=O)(=O)Nc3ccccc3OC)c2)cc1
i | 1.2 | O=C(COC(=O)c1cc(=O)c2ccccc2o1)NC1CCCC1
i | 2.3 | c1cnc2c(OCc3nc4ccccc4[nH]3)cccc2c1
i | 0.17 | COc1ccc(S(=O)(=O)c2snnc2C)cc1

(more compounds)
KCNQ2 block | KCNQ2 block baseline | compound
i | 0.78 | COc1ccc(CC(=O)N2CCc3ccccc3C2)cc1
i | 0.24 | CNC(=O)N(O)C1N(/N=C/c2ccc(N(C)C)cc2)C(=S)SC1(C)C (configuration not stated)
i | -1.7 | COc1ccc(CCNc2nc3c(c(=O)n(C)c(=O)n3C)n2C)cc1OC
i | 0.53 | Cc1ccc(C(C)NC(=O)c2cc3cc(Br)ccc3oc2=N)cc1 (configuration not stated)
i | -0.23 | CCCCn1c(N)c(N(CCOC)C(=O)CC(NC(=O)c2ccccc2)c2ccccc2)c(=O)[nH]c1=O (configuration not stated)
i | -0.42 | Cc1ccc(-n2[nH]c(C)c(C=Nc3ccc(S(=O)(=O)Nc4nccs4)cc3)c2=O)cc1
i | 0.39 | O=C(NCCC1=CCCCC1)c1c(O)nc2sccn2c1=O
i | 0.68 | COC(=O)c1cc(OC)c(OC)cc1NCC(=O)Nc1ccc(C)cc1
i | -0.69 | CCNC(=O)COc1cc(C)c(Cl)c(C)c1
i | 0.01 | CCN1N=C(C)C=C(c2ccccc2)n2c1nc1ccccc12
i | 0.39 | O=C(NCCN1C(=O)S/C(=C\c2ccc(Cl)c(Cl)c2)C1=O)C1COc2ccccc2O1 (configuration not stated)
i | -0.65 | COc1ccc(CNC(=O)CN(C(=O)Cn2nnc(-c3ccccc3F)n2)c2ccc(C)cc2)cc1
i | 0.46 | COc1cc(NC(=O)CCc2ccccc2)nc(OC)n1
i | -0.82 | Cc1cc(C)c(OCCOCCN(C)C)c(Br)c1
i | 0.01 | O=C(c1ccccc1O)N1N=C(C(F)(F)F)CC1(O)c1ccc([N+](=O)[O-])cc1 (configuration not stated)
i | -0.3 | COc1ccc(C(c2c(C)n(C)n(-c3ccccc3)c2=O)c2c(C)n(C)n(-c3ccccc3)c2=O)c(OC)c1OC
i | 1.2 | O=C(CCn1c(=S)[nH]c2ccccc2c1=O)NCCCN1CCCC1=O
i | 0.45 | CC(=O)c1ccc(NC2OC(CO)C(O)C(O)C2O)cc1 (configuration not stated)
i | -0.69 | Cc1ccc(C2CC(=O)NC(SCc3ccccc3)=C2C#N)o1 (configuration not stated)
i | -0.02 | CC(=O)Nc1ccc(N2Cc3ccccc3C2)cc1

The results go on:
KCNQ2 block | KCNQ2 block baseline | compound
i | 0.19 | Cc1ccc(N2CCN(c3ccc([N+](=O)[O-])cn3)CC2)c(C)c1
i | 0.17 | CCOC(=O)C1CCCN(S(=O)(=O)Cc2ccccc2)C1 (configuration not stated)
i | -0.56 | CCOC(=S)SCc1cn2ccccc2n1
i | 0.18 | CCOc1ccc(-n2c(N)c(C(=O)NCc3ccco3)sc2=S)cc1
i | -0.54 | CNc1cc([N+](=O)[O-])ccc1N/C=C/C(=O)c1cccs1
i | 0.83 | CCOc1ccc(-c2[nH]ncc2-c2ccccc2)c(O)c1
i | 0.01 | O=S(=O)(Cc1ccc(Cl)cc1)NCc1ccc2c(c1)OCO2
i | 0.27 | CCn1ncc(S(=O)(=O)Nc2cccnc2)c1C
i | 0.06 | Cn1cc([N+](=O)[O-])c(C(=O)NC2CCCCCCC2)n1
i | 0.89 | O=C(O)Cc1ccc(NC(=O)c2ccc(NC(=O)c3ccco3)cc2)cc1
i | -0.43 | O=C(NNC(=O)c1ccccc1[N+](=O)[O-])c1ccccn1
i | 3 | CN(C)CCCN1C(=O)CSC1c1ccc([N+](=O)[O-])cc1 (configuration not stated)
i | -0.08 | Cc1cccnc1NCc1ccc(O)c2ncccc12
i | -0.1 | Oc1c(C(Nc2cccc(C(F)(F)F)c2)c2ccncc2)ccc2cccnc12 (configuration not stated)
i | -2.2 | COc1cc(C(O)c2nc3ccccc3n2C(C)C)cc(OC)c1OC (configuration not stated)
i | 2.6 | C/C(=C\c1ccc2c(c1)OCO2)C(=O)c1c(C)cc(C)[nH]c1=O
i | 0.02 | O=C(Nc1nccs1)c1cccc(S(=O)(=O)N2CCOCC2)c1
i | -1.6 | COc1cc(OC)c(C=O)c(OC(=O)N2CCOCC2)c1
i | 0.44 | CCc1sc(N)nc1-c1ccccc1
i | 0.02 | COc1ccc(NC(=O)N2c3ccc(OC)cc3C(C)=CC2(C)C)cc1

4 entries from above, as comma-separated lines:
molecule,KCNQ2 block,KCNQ2 block baseline
O=C(OCc1ccc([N+](=O)[O-])cc1)c1cc(S(=O)(=O)N2CCCCC2)ccc1N1CCOCC1,i,0.08
Cc1ccc(C(C)NC(=O)c2cc3cc(Br)ccc3oc2=N)cc1 (configuration not stated),i,0.53
COc1ccc(S(=O)(=O)N2CCOC2CNC(=O)C(=O)NCCc2ccccc2)cc1OC (configuration not stated),i,0.51
CCOc1ccc(-n2c(N)c(C(=O)NCc3ccco3)sc2=S)cc1,i,0.18

Next part
KCNQ2 block | KCNQ2 block baseline | compound
i | 0.19 | CCC[C@@H]1CCCO[C@@](C(=O)NCCN2CCOCC2)(C(F)(F)F)C1
i | 0.68 | Cc1sc(NC(=O)c2ccc(Cl)s2)c(C(N)=O)c1C
i | -0.39 | Cc1nc(N2CCC(C)CC2)c2c(C)c(C(=O)Nc3ccccc3C(F)(F)F)sc2n1
i | 0.59 | COc1ccc(NC(=O)C2CC(=O)NC3=C2C(=O)CC(C)(C)C3)cc1 (configuration not stated)
i | -0.31 | COC(=O)c1ccc(C2OCC(C)(C)CO2)cc1
i | 0.13 | Cc1ccc(OCC(=O)Nc2ccc(NC(=O)c3ccccc3)cc2)cc1C
i | 1.8 | Cn1c(SCC(=O)NC(=O)CN2CCCC2=O)nnc1-c1ccc(F)cc1
i | -0.9 | Cc1ccccc1NC(=O)/C(C#N)=C/c1ccsc1
i | 0.18 | COc1ccc(-c2nnn(CC(=O)N(CC(=O)NC3CCCC3)c3cccc(C)c3)n2)cc1OC
i | -2 | O=C(COc1ccccc1C(=O)NCC1CCCO1)Nc1ccc(Br)cc1 (configuration not stated)
i | -0.03 | O=C(NCCCN1CCN(CCCNC(=O)c2ccccc2F)CC1)c1ccccc1F
i | -1.3 | O=C(COC(=O)c1ccc(F)cc1)Nc1ccc(Cl)cn1
i | 4.1 | COc1ccc(CCNC(=O)C2CC=CCC2C(=O)O)cc1 (configuration not stated)
i | 0.04 | COc1ccc2nc(CCN(C)C(=O)C3CCC(=O)N(Cc4cccc(F)c4)C3)[nH]c2c1 (configuration not stated)
i | 0.88 | Cc1nc(SCC(=O)NC2CCCC2)c2c(C)c(C)sc2n1
i | -0.64 | Cc1ccc(N(C)C(=O)c2cc(S(=O)(=O)N3CCc4ccccc43)cn2C)cc1
